MARV entry inh: Marburg virus entry inhibition. Marburg virus pseudotyped entry inhibition, cell reporter; control for the full effect not named in the record; about a third of the inactives were read at about 46 µM. 300,000 tested, 1.8% active. Potency, µM (highest dose often 37.8 µM), without a hit: at the highest dose activity change, negative = inhibition, usual class: inhibitors; active = well fitted inhibition curve with a large enough effect; inconclusive = small, poorly fitted or top-dose-only effect, or effect the other way; inactive = flat fitted curve, though single readings scatter; tested in HEK293 cells; about a fifth of its hits are not listed in these tables; also: % is scaled to controls: 0 for no effect and ±100 for the full control effect; luciferase read-out
RE007 growth inh: less growth of the S. pombe RE007 Vpr strain | S. pombe RE007 Vpr strain, BacTiter-Glo ATP luminescence, 24 h; control for the full effect not named in the record | Potency, µM (titrated, usually from 92.2 µM), inactives show at the highest dose activity change, negative = less growth | 360,000 tested, 0.21% active | AID 651644; active = well fitted falling curve with a large enough effect; inconclusive = small, poorly fitted or top-dose-only effect; inactive = no such curve, though single readings can be large or run the other way;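 also: % is scaled to controls: 0 for no effect and ±100 for the full control effect; nearly all actives have a fitted effect of over 50% in size; the assay follows cell death caused by Vpr and the record does not say whether a fall means rescue or toxicity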
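Fission yeast strain RE007, carrying one chromosomally integrated HIV-1 vpr copy, was seeded at OD 0.01 in PMG+AL medium with 23 nL pinned compound. After 24 h at 30 °C and 99% humidity, viability was read by BacTiter-Glo luminescence.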
SARS PLP yeast: inhibitors of SARS-CoV papain-like protease in yeast | S. cerevisiae expressing SARS-CoV PLpro, growth rescue; control for the full effect not named in the record | 330,000 tested, 0.19% active | Potency, µM (series often up to 32.9 µM), inactives show top-dose activity, positive = growth rescue | AID 485353; also: 0% is about no effect; nearly all actives have a fitted effect of over 55% in size; growth read by luminescence after 48 h
Cruzain inh noDet: inhibitors of Trypanosoma cruzi cruzain without detergent. P25779. purified cruzain, Z-FR-AMC fluorescence, no detergent. Potency, µM, for inactives: max response, negative = inhibition, hits mostly inhibitors. 200,000 tested, 2.3% active; active = well fitted curve in the direction sought with a large enough effect; inconclusive = small, poorly fitted or top-dose-only effect, or another doubt; inactive = no such curve, though single readings can be large; an effect the other way counts as inactive or inconclusive;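 also: plate controls were enzyme without inhibitor for no effect and buffer without enzyme for full effect; nearly all actives have a fitted effect of over 40% in size; top concentration of the series not given in the record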
Target sequence (P25779 123-467 limits assumed): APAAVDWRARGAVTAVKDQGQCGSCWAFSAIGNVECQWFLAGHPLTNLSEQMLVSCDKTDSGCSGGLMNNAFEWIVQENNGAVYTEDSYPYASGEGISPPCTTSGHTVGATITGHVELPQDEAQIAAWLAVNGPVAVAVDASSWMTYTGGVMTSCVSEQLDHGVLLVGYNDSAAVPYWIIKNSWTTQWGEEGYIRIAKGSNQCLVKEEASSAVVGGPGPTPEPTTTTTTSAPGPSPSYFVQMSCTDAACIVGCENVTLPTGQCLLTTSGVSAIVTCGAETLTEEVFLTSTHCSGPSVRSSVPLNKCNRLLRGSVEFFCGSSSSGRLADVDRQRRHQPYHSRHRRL
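Detergent-free condition (0.00005% Triton X-100) in acetate buffer pH 5.5 with DTT. 1.5 nM enzyme and compound were pre-mixed 15 min, then 2 uM Z-FR-AMC substrate added; reaction progress from fluorescence change between first and third reads (60 s).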
LASV entry inh: blocks Lassa virus binding to or entry into cells | Lassa virus pseudotype entry inhibition, cell reporter; control for the full effect not named in the record | 300,000 tested, 1.2% active | AID 540256 | Potency, µM (doses to about 37.9 µM), inactives show at the highest dose activity change, negative = inhibition, usual class: inhibitors; active means well fitted inhibition curve with a large enough effect; inconclusive means small, poorly fitted or top-dose-only effect, or effect the other way; inactive means flat fitted curve, though single readings scatter; tested in HEK293 cells; also: % is scaled to controls: 0 for no effect and ±100 for the full control effect; nearly all actives have a fitted effect of over 50% in size; luciferase read-out
StopGo reporter: FMDV 2A StopGo reporter, luciferase signal. human cells with a luciferase reporter of 2A StopGo recoding; control for the full effect not named in the record. Potency, µM (top dose mostly 57.9 µM), inactives show at the highest dose signal change, negative = less light. 410,000 tested, 1.2% active; active = well fitted falling curve with a large enough effect; inconclusive = small, poorly fitted or top-dose-only effect; inactive = no such curve, though single readings can be large or run the other way; tested in HEK293T cells; also: % is scaled to controls: 0 for no effect and ±100 for the full control effect; nearly all actives have a fitted effect of over 45% in size; luciferase light after 4 h
Cruzain Triton: cruzain (T. cruzi) inhibition with detergent; purified cruzain, Z-FR-AMC fluorescence, 0.01% Triton; Potency, µM, for inactives: max response, negative = inhibition, actives largely listed as inhibitors; 200,000 tested, 0.43% active; AID 1478; active = well fitted curve in the direction sought with a large enough effect; inconclusive = small, poorly fitted or top-dose-only effect, or another doubt; inactive = no such curve, though single readings can be large; an effect the other way counts as inactive or inconclusive;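 also: plate controls were neutral wells for no effect and buffer without enzyme for full effect; nearly all actives have a fitted effect of over 40% in size; top concentration of the series not given in the record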
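Detergent-containing arm of a paired screen for aggregation-based inhibition: 0.01% Triton X-100 present. Cruzain at 1.5 nM cleaved 2 uM Z-FR-AMC at pH 5.5 with 5 mM DTT; AMC fluorescence gain over 60 s measured activity.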
NS1 inh: blocks influenza NS1 protein function. Potency, µM (top dose mostly 46.1 µM), inactives show at the top dose activity, positive = more growth. 270,000 tested, 0.4% active. S. cerevisiae slowed by influenza A NS1, growth recovery by OD600; also: actives are rising curves; nearly all actives have a fitted effect of over 50% in size
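Compounds were scored for reversing the slow growth caused by influenza A NS1 in S. cerevisiae, measured by optical density at 600 nm. Assay medium contained 2% galactose at pH 6.0; NS1-free yeast of the same strain were the positive control.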
Numbers without * were called inactive; ? = inconclusive; nt = no result given; [ ] = dose if it differs, or a comment. Unless noted, calls follow the shape of the dose curve; as a rule, active means well fitted rising curve with a large enough effect; inconclusive means small, poorly fitted or top-dose-only effect; inactive means no such curve, though single readings can be large or run the other way. Potency is read from the fitted curve at half-maximal effect.

SMILES | MARV entry inh | RE007 growth inh | SARS PLP yeast | Cruzain inh noDet | LASV entry inh | StopGo reporter | Cruzain Triton | NS1 inh
COc1ccc(CN2CCCC(C(=O)c3ccccc3SC)C2)cc1O (stereo not drawn) | nt | -11.9% | -0.3% | nt | nt | -2.2% | nt | 1.8%
COc1ccc(CC(=O)NNC(=O)CSc2ccc(C)cc2)cc1 | -0.7%[46.1 µM] | -7.2% | 0.5% | nt | 8.7% | 9.6% | nt | 1.3%
CC1CCN(C(=O)Cn2nc(C(F)(F)F)c3c2CCCC3)CC1 | -4.5% | -3.3% | -2.9% | 7.3% | 26.1% | -21.7% | 0.3% | -2.1%
CC1CN(c2ccc(Oc3ccccc3)cc2)c2nc3c(c(=O)[nH]c(=O)n3C)n2C1 (stereo not drawn) | ? | -0.9% | 4.1% | ? | 10.3% | -2.8% | -3.9% | -8.8%
Cc1ccc(C)n1-n1cnc2scc(-c3cccs3)c2c1=O | ? | 22.4% | 2.0% | -18.4% | -18.4% | -5.9% | -1.5% | -6.8%
Cc1n[nH]c(C)c1CN(C)C(=O)c1cc(COc2ccc(F)c(F)c2)on1 | 4.5% | -4.0% | -2.8% | nt | -25.4% | -3.3% | nt | 17.8%
Cc1noc(C)c1S(=O)(=O)N1CCC(C(=O)NCCc2ccc(S(N)(=O)=O)cc2)CC1 | 21.8% | 10.1% | 7.0% | -4.7% | 0.9% | 4.4% | -0.9% | 9.1%
Cn1cc(C(=O)c2ccc(Cl)cc2Cl)cc1C(=O)N/N=C(\N)COc1cccc(C(F)(F)F)c1 | ? | -0.7% | -1.6% | ? | ? | ? | -4.5% | 15.7%
CCOC(=O)c1cc2c(n(-c3ccc(C)cc3)c1=O)CCCC2=O | 1.5%[46.1 µM] | 4.3% | -4.1% | -5.5% | -20.0% | -23.3% | -2.0% | 2.0%
COC(=O)c1cccc(NS(C)(=O)=O)c1C | 0.6% | -12.3% | -0.4% | -3.2% | -14.2% | -18.8% | 2.6% | -0.8%
COc1ccc(C(=O)Nc2cc(C(F)(F)F)ccc2-n2cnc3ccccc32)cc1 | ? | -6.3% | 11.0% | -1.8% | 0.1% | 14.7% | -19.1% | 2.3%
CC(=O)Nc1cccc(Oc2ncnc3scc(-c4ccc(C(C)C)cc4)c23)c1 | 2.82µM* | 2.0% | -7.3% | ? | 2.51µM* | -18.4% | -9.9% | -1.0%
CCN1CCN(C(=O)CN(C)S(=O)(=O)c2cc(C)ccc2OC)CC1 | ? | -4.7% | 0.0% | nt | 29.0% | -11.0% | nt | -2.1%
COc1ccc(-c2cc(C)no2)cc1S(=O)(=O)N1CCCN(Cc2ccc(F)cc2)C1 | nt | 7.6% | 32.8% | nt | nt | -8.2% | nt | -14.1%
Cc1cccc(C)c1OCCCCn1cnc2ccccc2c1=O | -1.0% | 15.6% | -14.4% | 1.2% | -9.2% | -26.0% | -3.6% | -39.8%
CCOC(=O)c1cc(-c2nnc(-c3ccc(Cl)cc3)o2)c(C)nc1C | 0.9% | -8.0% | 1.7% | 1.8% | nt | -21.4% | 1.2% | -2.2%
COc1cc(C(=O)Nc2cccc(-c3nc4ncccc4o3)c2C)cc(OC)c1OC | 23.8% | -0.3% | -2.2% | -22.1% | 0.4% | 2.6% | 0.0% | -8.1%
COc1nc(N(C)C)nc(N(C)c2cc(Cl)cc(Cl)c2)n1 | -21.9% | 0.2% | 4.8% | nt | 0.9% | -25.7% | nt | 1.1%
O=C(NCc1ccncc1)Nc1cccc(Cl)c1 | 9.0%[46.1 µM] | -2.6% | -4.6% | -2.0% | 30.0% | 36.7%[activator] | 1.1% | -3.8%
CCOC(=O)C1=C(COC(=O)CCOc2cccc(C)c2)NC(=O)NC1C (stereo not drawn) | -2.6% | 16.3% | -5.1% | nt | 11.8% | -20.9% | nt | nt

Whole records as entered above. Order of values: MARV entry inh, RE007 growth inh, SARS PLP yeast, Cruzain inh noDet, LASV entry inh, StopGo reporter, Cruzain Triton, NS1 inh
Listed for O=C(NCc1ccncc1)Nc1cccc(Cl)c1 = 9.0%[46.1 µM], -2.6%, -4.6%, -2.0%, 30.0%, 36.7%[activator], 1.1%, -3.8%
Listed for Cc1noc(C)c1S(=O)(=O)N1CCC(C(=O)NCCc2ccc(S(N)(=O)=O)cc2)CC1 = 21.8%, 10.1%, 7.0%, -4.7%, 0.9%, 4.4%, -0.9%, 9.1%

(list continues)
SMILES | MARV entry inh | RE007 growth inh | SARS PLP yeast | Cruzain inh noDet | LASV entry inh | StopGo reporter | Cruzain Triton | NS1 inh
COc1cc(/C=N/NC(N)=S)cc(Br)c1OCc1ccccc1F | ? | 2.4% | 11.5% | 0.199µM* | ? | ? | 0.562µM* | -5.3%
N#Cc1ccc(CN2C(=O)NC3(CCCCCC3)C2=O)cc1 | -4.2%[46.1 µM] | 9.8% | -2.6% | nt | 12.5% | -21.1% | nt | 9.4%
CC(C)C(NC(=O)OCc1ccccc1)C(=O)OCC(=O)N1CCCCC1 (stereo not drawn) | ? | 9.8% | -6.9% | 1.3% | -1.7% | 33.8%[activator] | 3.5% | -6.5%
COc1cccc(NC(=O)c2cc(-c3ccccn3)nc3ccccc23)c1 | -15.4% | -0.4% | -1.0% | nt | -4.8% | -23.0% | nt | nt
Cc1cc(C(=O)CN2C(=O)c3ccccc3C2=O)c(C)n1Cc1cccs1 | 6.51µM* | 4.1% | 5.6% | 2.0% | -48.2%[14.3 µM] | -7.2% | 1.4% | -3.8%
COc1ccc2oc(C(=O)N(C)Cc3ccc4c(c3)OCCO4)c(C)c2c1 | 20.4% | 11.6% | -0.9% | nt | 9.3% | 17.0% | nt | nt
Cc1cc(C)cc(N(CCC#N)C(=O)CSc2nc3nc(C)cc(C)n3n2)c1 | -4.1% | 4.2% | -2.1% | 10.2% | 15.2% | nt | -6.1% | -2.4%
CC(C)(C)OC(=O)NCc1nc(N)n[nH]1 | 2.0% | -0.2% | 11.6% | 0.3% | 14.3% | -0.4% | 1.2% | 4.1%
O=[N+]([O-])c1ccccc1S(=O)(=O)Nc1cccnc1 | ? | -9.4% | 3.3% | nt | 21.5% | -8.0% | nt | 1.6%
Cc1cc(-c2n[nH]c(=S)n2/N=C/C(Cl)=C/c2ccccc2)n[nH]1 | ? | nt | -20.0% | 12.3% | 6.0% | ? | -8.8% | ?
CCOC(=O)/C(C#N)=C/c1cccc(C)c1 | nt | 0.7% | 0.6% | nt | nt | -11.9% | nt | 0.4%
CCOC(=O)C1CCN(S(=O)(=O)c2c(C)[nH]c(C)c2C(=O)N2CCCCC2)CC1 | 4.8%[46.1 µM] | 1.0% | 19.6% | nt | 0.8%[46.1 µM] | -9.7% | nt | 1.5%
C[C@@H]1CN(Cc2nc(Cc3ccccc3F)no2)C[C@H](C)O1 | 1.9%[46.1 µM] | ? | -2.8% | nt | -3.5% | 19.6% | nt | -3.8%
O=C(Nc1ccc(NC(=O)c2ccco2)nc1)c1ccco1 | ? | -9.1% | -4.8% | nt | ? | -42.6% | nt | nt
COC(=O)c1ccccc1NC(=O)c1ccc(NC(=O)C2CCCO2)cc1 (stereo not drawn) | -14.4% | -16.0% | 8.0% | nt | ? | -13.1% | nt | -21.2%
COc1ccc(CCNc2nc(-c3sc(N)nc3C)cs2)cc1OC | ? | -15.9% | 0.3% | 10µM* | -20.3% | 10µM* | 14.1µM* | ?
CC(C)Oc1ccccc1/C=N/Nc1ccccc1[N+](=O)[O-] | ? | -3.7% | -10.6% | -10.9% | 13.0% | 2.6% | -9.3% | -11.7%
CC(=O)c1cnc(SCCN2C(=O)c3ccccc3C2=O)nc1C | ? | -3.8% | -1.4% | -3.8% | -0.1% | 15.3% | 8.2% | -7.8%
O=S(=O)(NC1CCCCC1)c1cccs1 | ? | -10.4% | 1.7% | nt | 18.5%[46.1 µM] | 31.3%[activator] | nt | -2.1%
Cc1ccc(NC2=NC3(CCCC3)N=C(N)N2)c(C)c1 | ? | 14.7% | 0.6% | nt | 9.2%[46.1 µM] | 34.4%[activator] | nt | -5.6%
Cc1ccc(NC(=O)C2CCN(S(=O)(=O)c3ccc4[nH]c(=O)ccc4c3)CC2)c(C)c1 | nt | -11.3% | 4.3% | nt | nt | -27.1% | nt | -6.9%
CC(C)(C)c1ccc(C(=O)NCC(=O)NCC(C)(C)N2CCOCC2)cc1 | -1.8% | 6.1% | 4.5% | nt | -6.3% | 11.6% | nt | nt
N#CCCN1CCN(C(=S)c2ccc(-c3cc(Cl)ccc3Cl)o2)CC1 | ? | -6.8% | -3.2% | ? | -1.5% | ? | -5.7% | -29.7%
Cc1ccc(N(C(=O)CNC(=O)c2ccco2)C(C(=O)NC2CCCCC2)c2cccnc2)cc1 (stereo not drawn) | 3.5% | 7.0% | 0.5% | nt | 3.0% | 0.0% | nt | 10.7%
COC(=O)CC1C(=O)NCCN1C(=S)Nc1cccc(C)c1 (stereo not drawn) | 1.5% | 2.4% | 6.3% | -3.6% | 13.8% | 14.2% | -0.8% | 10.4%
COc1cccc(/C=N/NC(=O)CSCC(=O)Nc2ccccc2)c1O | 20.6µM* | 6.9% | 10.1% | 4.0% | ? | 15.1% | -4.7% | -9.7%
CN1C(=O)CSC1=Nc1cccc(C(=O)O)c1 | nt | 5.6% | -6.4% | nt | nt | 9.8% | nt | -1.4%
O=C(CSc1nc(C2CC2)nc2ccccc12)N1c2ccccc2Sc2ccc(C(F)(F)F)cc21 | ? | 2.4% | 5.0% | 3.98µM* | -6.9% | -20.4% | 2.4% | 23.8%
CCOC(=O)c1ccc(NC(=O)c2ccc[n+]([O-])c2)cc1 | 18.1%[46.1 µM] | 0.9% | -0.8% | nt | 16.7% | 8.5% | nt | -3.3%
O=S(=O)(c1cccs1)N1CCC2(CC1)OCCN2S(=O)(=O)c1ccccc1 | -15.9%[46.1 µM] | 1.7% | -1.5% | nt | -10.4% | 12.7% | nt | nt

Assay outcomes from PubChem BioAssay.
